# Compound activity (PubChem BioAssay)
# PrP 5UTR inh: inhibition of PrP 5' UTR reporter expression. hit rate 0.35% among 340,000. cell-based PrP 5' UTR mRNA reporter, plate reader. inhibition, % (test concentration not listed);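 active = every replicate at 50% or more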;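 also: 0 = median of the neutral control wells; tested in H4 reporter cells; numbers are from one replicate; inactives centre near -14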
# ugtP null kill: kills S. aureus RN4220 lacking UgtP; S. aureus RN4220 ugtP deletion, OD600 growth, 16 h; some inactives read as strong as hits; growth inhibition, % (test concentration not listed); hit rate 0.54% among 330,000; AID 1259309;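 active = z-score under -3 and OD600 up to 0.15 on both plates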;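 also: plate controls were untreated wells for no effect and antibiotic for full effect; wells of about 80 µL received 100 nL stock; the first replicate is given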
# Sa RN4220 lethal: kills Staphylococcus aureus RN4220; S. aureus RN4220 growth, OD600, 16 h; inhibition, % (concentration not given with the values); hit rate 0.33% among 330,000;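 active = z-score of -3 or lower and OD600 up to 0.18 on both plates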;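 also: plate controls were untreated cells for no effect and reference antibiotic for full effect; stock transfer was 100 nL into about 80 µL; one replicate is shown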
# BJeLR lethal: BJeLR cell viability loss; BJeLR (HRASV12) viability, CellTiter-Glo ATP luminescence, 48 h; reference of the scale not given here; inhibition, % (concentration not given with the values); hit rate 0.17% among 300,000; AID 1554;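 active = replicate mean above 50%; inconclusive = above 50% but judged a plate artefact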;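 also: 50 nL library stock added to about 25 µL; numbers are from one replicate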
# Mtb hypoxia rep: inhibitors of hypoxia-regulated fluorescent reporter in Mycobacterium tuberculosis | M. tuberculosis hypoxia-regulated fluorescent reporter, fluorescence | AID 1159583 | fluorescence inhibition, % (test concentration not listed) | hit rate 0.1% among 300,000;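 active = 35 to 45% if threefold the growth effect, above 45% if 1.5-fold the growth effect; inactive = the rest, general growth blockers included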;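 also: wells of about 50 µL received 100 nL stock; 0% = vehicle wells and 100% = reference inhibitor wells; whole bacteria with a GFP reporter of the hypoxia response; strong numbers were not always called active; many hits fall short of the cut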
# Autofluor counter: flagged as autofluorescent in microsphere protease counterscreen. compound autofluorescence counterscreen, microsphere flow cytometry; hits give high values. AID 624483. hit rate 3.1% among 360,000. fluorescence intensity (concentration not given with the values);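 active = at least 3 SD above the mean of all compounds, about 16000 in these data; inconclusive = too few beads counted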;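 also: 100 nL of 1 mM stock went into each well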
# Mtb hypoxia rep growth: also measured in Mtb hypoxia rep; calls as there; growth inhibition, %; measured here: M. tuberculosis growth (absorbance);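 0% = vehicle and 100% = reference antibiotic; read after six days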
# Numbers without * were called inactive; u = inconclusive; x = not tested or not shown.
1	O=C(Nn1c(C2CC2)nc2ccccc2c1=O)c1ccco1
2	Nc1cc(=O)[nH]c(SCC(=O)Nc2ccc(S(=O)(=O)N3CCCCC3)cc2)n1
3	O=C(Nc1nc(-c2ccco2)c(-c2ccco2)s1)c1ccco1
4	Cc1ccc(C(=O)Nc2ccc3cn[nH]c3c2)cc1S(=O)(=O)N1CCOCC1
5	Cc1ccc(C2NC(=O)c3ccccc3N2)s1 (stereo not drawn)
6	CCCCn1c(SCC(=O)N(CC)C2CCS(=O)(=O)C2)nc2cc(S(N)(=O)=O)ccc21 (stereo not drawn)
7	CCCN(CCC)CCOc1cc(C)ccc1C(C)C
8	O=C(COC(=O)c1cc[n+]([O-])cc1)Nc1ccc(Cl)cc1Cl
9	O=C(c1ccccc1)c1nc2ccccc2[nH]c1=O
10	COc1cc2ccc(=O)oc2c(OC2OC(CO)C(O)C(O)C2O)c1O (stereo not drawn)
Screen / compound no.,1,2,3,4,5,6,7,8,9,10
PrP 5UTR inh,-13.6,-18.6,-9.6,-37.5,-80.3,-29.0,-13.1,-19.3,-18.2,x
ugtP null kill,0.7,10.1,0.8,7.4,-10.2,3.5,8.6,6.4,-1.2,0.7
Sa RN4220 lethal,-1.8,6.5,2.8,2.2,-3.5,8.7,2.6,4.2,-1.1,5.1
BJeLR lethal,4.8,-6.6,3.8,-1.4,26.4,-4.6,-3.7,x,0.9,x
Mtb hypoxia rep,-0.5,3.3,11.3,12.9,-3.3,8.9,21.2,2.6,3.4,16.7
Mtb hypoxia rep growth,5.9,-5.2,0.0,5.4,2.8,-5.4,10.1,10.9,6.4,1.7
Autofluor counter,20747*,3550,4728,5335,2586,3275,2540,5779,11497,x

11	Cn1c(=O)n(CC(=O)Nc2ccc(F)cc2)c2ccccc21
12	Cc1nc2ccccc2nc(=O)c1NNc1ccccc1
13	c1cncc(-c2nc(-c3cccs3)cs2)c1
14	O=C1c2cc3ccccc3c(-c3ccccc3)c2C(=O)N1c1ccccn1
15	Cc1cccc(NC(=O)/C(C#N)=C/c2cccc([N+](=O)[O-])c2)n1
16	Cc1cc(Nc2cc(Cl)nc(Sc3ccc(NC(=O)C4CC4)cc3)n2)n[nH]1
17	N/C(=N\OS(=O)(=O)c1ccc2ccccc2c1)c1cccnc1
18	Oc1csc(Cc2nc(-c3ccccc3F)cs2)n1
19	COc1ccc2c(c1)CCCC21NC(=O)N(CC(=O)NCc2cccs2)C1=O (stereo not drawn)
20	CCN(CCCNC(=O)CC(C(=O)N1CCc2ccccc21)n1ccnc1)c1cccc(C)c1 (stereo not drawn)
Screen / compound no.,11,12,13,14,15,16,17,18,19,20
PrP 5UTR inh,-27.8,-66.7,-37.3,-25.2,-27.4,-10.3,3.3,-34.1,7.1,-6.4
ugtP null kill,2.8,-1.3,-13.1,-1.5,3.6,-14.0,7.4,11.2,-10.9,11.1
Sa RN4220 lethal,4.0,5.1,5.3,2.5,3.2,-6.1,3.7,-1.7,-1.5,3.0
BJeLR lethal,-2.6,16.2,11.7,9.0,3.2,5.3,-4.4,6.6,x,-9.0
Mtb hypoxia rep,2.6,12.4,3.7,3.2,12.7,-0.7,6.2,3.2,-7.7,6.9
Mtb hypoxia rep growth,3.2,1.1,5.3,3.1,15.1,4.5,8.3,0.3,-4.5,10.1
Autofluor counter,9976,2213,3429,2332,4161,2738,2465,4534,2935,10803

21	C=C(C)Cn1c(N)cc(=O)nc1SCC(=O)Nc1cccc(C(F)(F)F)c1
22	CN1CCN(C(=O)C2=C[C@H](c3ccc4c(c3)OCO4)C[C@H](OCc3ccc(CO)cc3)O2)CC1
23	O=C(Nc1ccc2c(c1)C(=O)OC2)c1ccc(C(F)(F)F)cc1
24	CC(C)(C)C(=O)OCc1nc(-c2ccc(Cl)cc2)cs1
25	CC(C)NS(=O)(=O)c1ccc(NC(=O)C2CC3C=CC2C3)cc1 (stereo not drawn)
26	COc1ccc(CSCCc2n[nH]c(=S)n2-c2ccccc2)cc1C
27	O=C1N/C(=N/Nc2ccccc2)S/C1=C\c1ccccc1
28	COc1ccc(N2CCN(C(=O)CN(c3ccc(Br)cc3)S(C)(=O)=O)CC2)cc1
29	O=C(CCn1c(=O)oc2ccccc21)NC1=NCCS1
30	COc1ccc(-c2cc(C(=O)N3CCN(C(=O)c4ccco4)CC3)[nH]n2)cc1
Screen / compound no.,21,22,23,24,25,26,27,28,29,30
PrP 5UTR inh,-15.2,-11.4,-14.9,-107.0,-2.4,-12.2,-10.0,-21.7,-13.4,3.4
ugtP null kill,1.3,x,13.8,91.7*,0.7,15.6,-9.7,-9.6,-0.7,3.3
Sa RN4220 lethal,-2.0,x,0.5,0.9,0.9,7.5,-13.0,0.7,-0.4,-2.1
BJeLR lethal,5.3,3.2,-9.1,-1.5,8.5,0.8,13.9,3.8,3.5,-10.1
Mtb hypoxia rep,6.0,x,3.8,-1.7,x,-2.1,-0.5,-6.3,-6.4,-4.2
Mtb hypoxia rep growth,9.7,x,-3.3,-0.7,x,-4.1,8.0,-1.5,-6.7,1.0
Autofluor counter,4639,2873,3713,5930,4546,4716,2491,9158,9765,5707

31	Cc1ccc(Cl)cc1NC(=O)CN1CCN(S(=O)(=O)N2CCOCC2)CC1
32	COc1ccc(NC(C)c2cc(Cl)ccc2O)cc1 (stereo not drawn)
33	CC(C)C(=O)NC(=S)Nc1ccccc1C(=O)NC1CCCCC1
34	S=c1[nH]nc(CCc2nc3ccccc3[nH]2)n1-c1ccccc1
35	Cc1ccc(CSCC(=O)NN=C2CCN(C)CC2)cc1
36	O=C(CCc1ccccc1)NCCc1nc2ccccc2[nH]1
37	CCOC(=O)COn1c(SCC(=O)OCC)nc2ccccc2c1=O
38	CC(C)C[C@H](NC(=O)c1nc[nH]c1C(=O)NCc1ccccc1)C(=O)OC(C)(C)C
39	O=C(CSc1nc(=O)n(CCN2CCOCC2)c2c1CCC2)Nc1ccc(OC(F)(F)F)cc1
40	O=C(Nc1ccccc1C(F)(F)F)c1c(F)cccc1Cl
Screen / compound no.,31,32,33,34,35,36,37,38,39,40
PrP 5UTR inh,-22.6,-8.8,-12.2,-38.4,6.2,-19.2,-12.4,-8.8,6.5,-3.0
ugtP null kill,5.0,3.9,-1.4,-4.9,0.7,12.1,13.6,x,6.8,3.9
Sa RN4220 lethal,4.6,-3.4,-1.0,-0.4,5.7,0.4,9.9,x,3.3,3.7
BJeLR lethal,-3.8,4.8,-4.1,3.1,-2.7,0.2,1.1,4.9,15.6,6.5
Mtb hypoxia rep,7.5,x,-6.3,-4.5,2.9,5.9,7.1,x,8.8,1.3
Mtb hypoxia rep growth,8.6,x,-1.3,6.1,5.6,10.3,7.3,x,-3.9,-5.6
Autofluor counter,4151,4541,2415,2633,2521,4188,u,3992,u,2641

41	N#CC(C#N)=Cc1cccn1-c1ccc(S(N)(=O)=O)cc1
42	COc1ccc(CCNC(=O)Cn2nnc(-c3ccc(N4CCOCC4)cc3)n2)cc1OC
43	COc1ccc(Cl)cc1NC(=O)CN(C)C(=O)c1cc2ccccc2cc1O
44	Cc1nnc(NN=Cc2cccc(C(F)(F)F)c2)n1N
45	CN(C(=O)CN1C(=O)c2ccccc2S1(=O)=O)C1CCCCC1
46	COc1ccc(C(=O)NNC(=O)CSc2nnc(C)n2CC2CCCO2)cc1 (stereo not drawn)
47	COc1ccc(CCNc2ccc(C(CC(N)=O)NC(=O)Cc3cccc4ccccc34)cc2[N+](=O)[O-])cc1 (stereo not drawn)
48	Cc1onc(-c2c(F)cccc2Cl)c1C(=O)Nc1nnc(C(F)(F)F)s1
49	O=C(Nc1cccc(F)c1)c1ccc2ncsc2c1
50	COc1ccc(NC(=O)/C=C/c2cccc(F)c2)cn1
Screen / compound no.,41,42,43,44,45,46,47,48,49,50
PrP 5UTR inh,-13.7,-28.2,-1.6,x,-8.7,-14.7,-7.7,-11.9,-51.5,-62.4
ugtP null kill,9.7,1.8,-13.0,11.9,4.0,2.9,0.2,52.2,0.0,-1.0
Sa RN4220 lethal,2.4,5.1,-1.7,3.6,0.1,5.2,2.5,63.3,8.0,5.9
BJeLR lethal,-1.3,6.9,-0.3,x,x,x,-7.7,7.5,-6.1,3.8
Mtb hypoxia rep,0.0,6.3,-1.5,6.3,9.1,12.5,6.5,6.2,9.4,6.2
Mtb hypoxia rep growth,5.4,5.6,2.9,10.9,8.9,-2.5,-2.0,5.4,-1.1,5.2
Autofluor counter,2026,10812,u,x,3573,4288,3081,5391,3961,10621

51	O=C(Cc1ccc(Cl)c(Cl)c1)Nc1cccc2ncccc12
52	COCCN(C(=O)CCl)C(C(=O)NC1CCCCC1)c1ccccc1C (stereo not drawn)
53	CCCCn1c(=S)[nH]c2cc(S(=O)(=O)N3CCCCC3)ccc21
54	CNC(=S)N(C)[C@H]1c2c(ccc3ccccc23)OC[C@H]1CO
55	CCn1cc([N+](=O)[O-])c(C(=O)N2N=C(c3ccccc3)CC2c2ccc([N+](=O)[O-])cc2)n1 (stereo not drawn)
56	O=C(COc1ccc(Cl)cc1)OCC(=O)N1CCOCC1
57	Cc1cc(=O)n2cn[nH]c2n1
58	S=c1[nH]c2ccccc2n1Cc1ccccc1
59	COc1ccc(CN2CCN(C(=O)C3CCC(CNS(=O)(=O)c4ccc(C)cc4)CC3)CC2)c(OC)c1OC (stereo not drawn)
60	CCOc1ccc(NC(=O)CSc2ccc3nnc(-c4cccnc4)n3n2)cc1
Screen / compound no.,51,52,53,54,55,56,57,58,59,60
PrP 5UTR inh,-15.3,-7.0,-21.8,-12.2,-12.6,-18.8,-13.1,5.6,10.4,-5.8
ugtP null kill,0.3,3.6,-4.4,0.9,-11.4,3.7,3.7,7.7,-5.0,18.7
Sa RN4220 lethal,4.8,4.2,7.1,3.4,4.5,3.6,2.5,5.8,-2.8,4.5
BJeLR lethal,6.5,11.3,2.6,-3.9,-5.2,x,x,-1.0,-5.7,1.4
Mtb hypoxia rep,7.2,11.4,1.1,9.2,-3.6,0.0,7.4,-3.3,-8.3,6.7
Mtb hypoxia rep growth,20.3,13.8,11.0,4.1,5.8,-2.2,8.9,7.5,12.5,-5.3
Autofluor counter,4364,7504,3211,4452,2225,x,3577,2667,3300,5622

# The closing 4 records of the section before lead into the next:
57	Cc1cc(=O)n2cn[nH]c2n1
58	S=c1[nH]c2ccccc2n1Cc1ccccc1
59	COc1ccc(CN2CCN(C(=O)C3CCC(CNS(=O)(=O)c4ccc(C)cc4)CC3)CC2)c(OC)c1OC (stereo not drawn)
60	CCOc1ccc(NC(=O)CSc2ccc3nnc(-c4cccnc4)n3n2)cc1
61	COc1ccc(CCc2nnc(CCC(=O)N(C)Cc3ccnc4ccccc34)o2)cc1
62	COc1ccc(N(CC(=O)Nc2cccc(C(C)=O)c2)S(=O)(=O)c2ccc(NC(C)=O)cc2)cc1
63	Cc1nc2sc(C(c3ccco3)N3CCC(Cc4ccccc4)CC3)c(O)n2n1 (stereo not drawn)
64	Cc1cc(C(=O)COC(=O)C2=NNC(=O)CC2)c(C)n1-c1ccccc1
65	CCOc1ccccc1-n1c(SCC(=O)Nc2nccs2)nnc1-c1ccoc1C
66	CCC1(c2ccccc2)NC(=O)N(CC(=O)Nc2ccc(N3CCOCC3)cc2)C1=O (stereo not drawn)
67	C/C=C(\C)CN1CCN(c2ccccc2F)CC1
68	CC(CC#CCN1CCOCC1)OCCC#N (stereo not drawn)
Screen / compound no.,57,58,59,60,61,62,63,64,65,66,67,68
PrP 5UTR inh,-13.1,5.6,10.4,-5.8,-23.0,-12.2,-22.5,-46.2,-11.5,-17.2,-2.2,-15.7
ugtP null kill,3.7,7.7,-5.0,18.7,-3.5,-1.4,-6.2,3.5,7.4,-0.8,3.2,-0.3
Sa RN4220 lethal,2.5,5.8,-2.8,4.5,3.9,3.1,4.4,6.1,12.5,1.0,5.3,7.0
BJeLR lethal,x,-1.0,-5.7,1.4,0.2,-6.6,-0.3,5.6,-5.7,x,-5.2,10.8
Mtb hypoxia rep,7.4,-3.3,-8.3,6.7,-10.9,-5.3,0.6,15.5,x,5.8,10.1,13.4
Mtb hypoxia rep growth,8.9,7.5,12.5,-5.3,-4.5,8.5,3.1,8.7,x,6.2,5.6,9.1
Autofluor counter,3577,2667,3300,5622,2199,3664,5787,19448*,4459,7014,23234*,3130
